Screens deposited in PubChem by National Center for Advancing Translational Sciences (NCATS).
D2 PAM: positive allosteric modulators of human D2 dopamine receptor | DiscoveRx D2 beta-arrestin cells, luminescence, 90 min; 100% = 57 uM dopamine signal | hit rate 0.23% among 360,000 | P14416 | potentiation, % (no concentration beside the values); active = potentiation of 50% or more; inconclusive = 30% to 50%; inactive = 30% or less;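 also: compound concentration not given in the record; tested on top of an EC20 dose of dopamine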
Target sequence (P14416 whole entry, looked up): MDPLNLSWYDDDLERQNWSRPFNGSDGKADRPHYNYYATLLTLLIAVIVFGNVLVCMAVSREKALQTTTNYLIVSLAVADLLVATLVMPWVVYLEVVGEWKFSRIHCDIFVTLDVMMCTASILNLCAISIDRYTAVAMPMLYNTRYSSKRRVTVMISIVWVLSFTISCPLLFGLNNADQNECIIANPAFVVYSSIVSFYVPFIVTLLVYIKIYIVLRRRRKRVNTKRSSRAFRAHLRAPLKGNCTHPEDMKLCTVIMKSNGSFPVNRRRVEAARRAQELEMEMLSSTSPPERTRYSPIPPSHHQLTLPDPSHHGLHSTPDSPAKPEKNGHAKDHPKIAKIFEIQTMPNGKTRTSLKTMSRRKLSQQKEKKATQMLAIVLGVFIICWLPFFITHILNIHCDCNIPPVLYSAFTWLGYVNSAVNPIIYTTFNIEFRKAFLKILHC
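PathHunter D2 cells, attached overnight at 37 deg C, received compound in DMSO plus dopamine at EC20 (50 nM final) for 90 min at 37 deg C. Beta-arrestin recruitment was read as luminescence after 1 h with detection reagent at ambient temperature.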
gsp antagonist: antagonists of gsp mutant (McCune-Albright syndrome) | gsp-mutant cells, cAMP HTRF, 30 min; control for the full effect not named in the record | Potency, µM (doses to about 76.9 µM), for the others: at the top dose activity change, negative = inhibition, most hits filed as inhibitors | hit rate 0.4% among 340,000; active = falling curve of any shape with a large fitted effect; inconclusive = falling curve, mostly with a smaller effect; inactive = flat or rising curve; cell line not stated here;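 also: intracellular cAMP measured with PDE inhibitor Ro 20-1724 present during compound exposure; potency is read from the fitted curve at half-maximal effect; % is scaled to controls: 0 for no effect and ±100 for the full control effect; nearly all actives have a fitted effect of over 65% in size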
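HTRF cAMP read-out (cAMP-d2 plus anti-cAMP antibody-K in lysis buffer, 30 min RT). Before lysis, cells are exposed to compounds with […] for 30 min at 37C in DPBS containing Ca/Mg, BSA and Tween 20.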
TRPV1 PAM: enhances activation of the human vanilloid receptor TRPV1; Q8NER1; TRPV1-expressing cells, Fluo-8 calcium influx, capsaicin EC20 potentiation; host cell line not named in the record; control for the full effect not named in the record; potentiation, % at 8.33 µM; hit rate 0.02% among 320,000; AID 540277; active means potentiation above 80%; inconclusive means 30% to 80%; inactive means below 30%; also: 0% is about no effect
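TRPV1-expressing cells were cultured overnight at 35.5C and loaded with Fluo-8 calcium dye for 40 to 90 min at room temperature. After a 10 s baseline, compound was added and calcium influx was read kinetically for 3 min (ex 480/em 520 nm).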
gsp ag: gsp mutant agonism; hit rate 0.13% among 340,000; Potency, µM (doses to about 76.9 µM), inactives show at the highest dose activation (cAMP increase), most hits filed as activators; gsp mutant cells, cAMP HTRF, 30 min; control for the full effect not named in the record; active = well fitted activation curve with a large enough effect; inconclusive = small, poorly fitted or top-dose-only effect, or another doubt; inactive = no such curve, though single readings can be large or run the other way; cell line not stated here;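 also: phosphodiesterase inhibitor Ro 20-1724 added with compounds to block cAMP breakdown; potency is read from the fitted curve at half-maximal effect; nearly all actives have a fitted effect of over 60% in size; about a fifth of the inactives were tested at one dose only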
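Cells in DMEM/10% FBS with G418 were pretreated with compounds in DMSO plus […] (300 uM stock) for 30 min at 37C. cAMP was measured by HTRF (cAMP-d2 plus anti-cAMP antibody-K) after 30 min at room temperature.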
Menin-MLL FL inh: inhibitors of human menin-MLL interaction, wild-type MLL peptide | 290,000 tested, under 10 active | FP activity change, % at 61.4 µM | Fluorescence polarization, fluorescein-MLL peptide displacement from menin; inconclusive = falling polarisation curve, or a change in total fluorescence; inactive = total fluorescence flat and polarisation flat or rising; no compound was filed as active; the % refers to the polarisation; negative = inhibition;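 also: % of control where 0% means no effect; inhibitors lower the polarisation; unlabelled MLL peptide was the positive control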
Sfp inh: blocks B. subtilis Sfp PPTase activity; Biochemical Sfp PPTase activity, qHTS; Potency, µM, for the others: max response, negative = inhibition, actives largely listed as inhibitors; hit rate 3.5% among 310,000; AID 1490; active = well fitted inhibition curve with a large enough effect; inconclusive = small, poorly fitted or top-dose-only effect, or another doubt; inactive = no such curve, though single readings can be large or run the other way;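 also: the enzyme is Sfp with the accession as filed and its product quenches rhodamine fluorescence; potency is read from the fitted curve at half-maximal effect; 0% = enzyme reaction without inhibitor and -100% = no enzyme wells; top concentration of the series not given in the record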
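After 15 min at room temperature with compound, 15 nM Sfp received 5 uM rhodamine-CoA plus 12.5 uM BHQ-2-ybbR (50 mM Hepes pH 7.6, 10 mM MgCl2). Rate came from the fluorescence difference over 30 min, ex 525/em 598 nm.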
ClpP mod: qHTS Assay for Activators of ClpP | ATP-dependent Clp protease proteolytic subunit (Bacillus subtilis (strain 168)), P80244 | Potency, µM (series often up to 57.5 µM), for inactives: at the top dose activity change, negative = active | purified B. subtilis ClpP, FRET peptide cleavage, 20 min | hit rate 1.9% among 340,000 | AID 651965, 2013; active = well fitted falling curve with a large enough effect; inconclusive = small, poorly fitted or top-dose-only effect; inactive = no such curve, though single readings can be large or run the other way; also: potency is read from the fitted curve at half-maximal effect; the source files actives as falling curves though it sought activators and does not explain the sign; nearly all actives have a fitted effect of over 65% in size; many hits overshoot -100%
Target sequence (P80244 whole entry, looked up): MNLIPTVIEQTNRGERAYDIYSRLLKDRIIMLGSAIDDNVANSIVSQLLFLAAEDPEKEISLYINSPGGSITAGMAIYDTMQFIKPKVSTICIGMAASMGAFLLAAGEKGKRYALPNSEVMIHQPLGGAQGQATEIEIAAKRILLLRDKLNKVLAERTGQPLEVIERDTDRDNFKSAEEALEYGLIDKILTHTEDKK
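ClpP 10 microg/mL final, pH 8 Tris/KCl buffer with BSA, glycerol, Tween-20; compound pinned in; FRET-FV substrate; RT 20 min; Ex320/Em430; ΔFRET vs ADEP 5.8 microM, DMSO, no enzyme.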
Numbers without * were called inactive; ? = inconclusive; · = not tested or not shown; [ ] = remark or other dose.

SMILES | D2 PAM | gsp antagonist | TRPV1 PAM | gsp ag | Menin-MLL FL inh | Sfp inh | ClpP mod
CN1CCN(c2ccccc2NC(=O)C(Cc2ccccc2)n2cccc2)CC1 (stereo unspecified) | -11.3 | 7.8% | 0.9 | -55.3%[inhibitor] | -3.7 | 6.5% | -0.8%
COc1ccc(N(CC(=O)Nc2ccc(S(=O)(=O)N3CCOCC3)cc2)S(=O)(=O)c2ccc(F)cc2)cc1 | 6.7 | -18.9% | 13.7 | -2.3%[15.4 µM] | 3.1 | ? | ·
CC(=O)C1=C(O)CC(c2ccccc2)CC1=NCCc1c(C)[nH]c2ccc(C)cc12 (stereo unspecified) | 0.6 | -11.2% | -3.5 | 8.2% | -1.3 | -5.9% | 0.3%
O=C(OC1CCCCC1=O)c1cc(=O)c2ccccc2o1 (stereo unspecified) | -12.0 | -8.4% | -6.9 | 12.7% | 0.1 | -1.7% | -0.9%
CN(CCO)c1ccc(-c2n[nH]c(=O)c3ccccc23)cc1[N+](=O)[O-] | 0.6 | 2.8% | -5.0 | -15.1% | 8.2 | -0.3% | ·
CC(NC(=O)CSCc1ccccc1Br)c1ccccc1 (stereo unspecified) | -11.7 | 3.9% | -20.6 | -35.4% | 10.0 | 0.8% | -0.1%
O=C(NCCN1CCOCC1)c1ccc(CS(=O)(=O)Cc2ccccc2F)o1 | -8.3 | 4.5% | -1.1 | 20.1% | 1.9 | 15.2% | 0.3%
CC1CCCCN1C(=O)Cn1c(=O)oc2cc(S(=O)(=O)N3CCCC3)ccc21 (stereo unspecified) | 4.2 | -3.6% | 13.8 | 0.1% | -7.3 | 25.9% | -0.8%
CN(C)c1nc(C(N)=O)nc(N2CCOCC2)n1 | -2.4 | 7.0% | 1.6 | 0.0% | 0.4 | 17.9% | 0.0%
c1ccc(CNc2nc3ccccc3n3cnnc23)cc1 | -3.3 | -2.6% | 21.4 | ? | 1.1 | -3.5% | ?
COc1ccc(-n2c(Cc3cccn3C)nnc2SCC(=O)NCC2CCCO2)cc1 (stereo unspecified) | -2.1 | 2.3% | -7.4 | -12.9% | -2.0 | 50.1µM* | 0.7%
Cc1ccc2nc(/C(C#N)=C/c3ccccc3C(=O)O)[nH]c2c1 | 1.9 | -4.6% | 7.9 | -8.9% | 14.2 | 22.4% | ·
Cc1cc(CN2CCC(n3nccc3NC(=O)c3ccccc3C)CC2)n[nH]1 | -3.4 | -9.6% | 0.3 | ? | -2.4 | 8.6% | -3.2%
COC(=O)c1ccc(Cn2cc(C(F)(F)F)cc([N+](=O)[O-])c2=O)cc1 | 10.8 | 7.1% | -2.7 | 3.2% | -3.1 | 14.4% | ·
CC(=O)N(C)/C=C1\Sc2ccccc2C1=O | -2.5 | 4.4% | -11.1 | -9.9% | -0.1 | 4.0% | -12.8%
Cc1ccc2oc(=O)c(/C=C(\O)c3cccs3)nc2c1 | -7.3 | -5.9% | 0.3 | -8.3%[15.4 µM] | ? | -9.4% | ·
N#CC1(NC(=O)CN2C(=O)c3ccccc3C2=O)CCCCC1 | -3.9 | 15.4% | -0.2 | 1.4% | · | · | 0.3%
CS/C(=N\S(=O)(=O)c1ccccc1)c1ccccc1 | -10.7 | 11.2% | 3.7 | -21.5% | 1.1 | -15.7% | 0.7%
COc1ccc(C=C(c2nc3ccccc3s2)c2nc3ccccc3s2)cc1O | -20.1 | -10.0% | -5.4 | -12.2% | 8.1 | -10.6% | 0.9%
C/C(=N/NC(=O)c1ccc(C)s1)c1ccncc1 | -9.9 | 14.0% | -9.4 | 7.2% | -1.4 | -2.8% | -1.0%
COc1ccccc1-c1noc2ncnc(Nc3ccc4c(c3)OCO4)c12 | -2.4 | -9.4% | 0.4 | -2.9% | -8.2 | 0.3% | -2.5%
CC1(c2ccccn2)Nc2ccccc2-c2nc3ccccc3n21 (stereo unspecified) | 1.6 | -6.3% | 14.9 | 4.5% | -0.9 | -0.7% | 22.4%
COc1ccc(C(=O)Nc2ccc(NC(=O)C(C)C)nc2)cc1 | -4.6 | 16.2% | 8.7 | 1.5%[15.4 µM] | -0.2 | 27.7% | ·
COCC1CCCN(Cc2cn[nH]c2-c2cc3ccccc3o2)C1 (stereo unspecified) | -12.5 | -5.0% | 1.9 | -0.6%[15.4 µM] | 2.1 | 20.0% | ·
Nc1nc(-c2ccc(Oc3ccccc3)cc2)c(CC(=O)O)s1 | -7.8 | -5.4% | 1.6 | 20.0% | 0.8 | -7.5% | -0.6%
CCN(CC)S(=O)(=O)c1ccc(C(=O)NCC(=O)NC2CC2)cc1 | -1.2 | 1.3% | 6.9 | -2.0%[15.4 µM] | · | · | ·
O=C(COC(=O)c1ccncc1)NC(=O)C1CCCCC1 | 3.0 | 7.2% | -6.5 | -40.2% | -12.3 | 1.2% | -7.3%
O=C(NO)c1ccc(C(=O)N(C2CCCCC2)C2CCCCC2)cc1 | -4.7 | -14.2% | -3.0 | ? | -0.1 | 21.5% | -2.3%
Cc1onc(-c2c(Cl)cccc2Cl)c1NC(=O)N(C)N | -12.3 | 3.6% | -16.7 | 12.2% | 3.2 | 3.5% | 1.0%
Cc1ccc(NC(=O)n2ncc3c(C)cccc32)c(C)c1 | -0.5 | 11.8% | -7.3 | 0.7% | -28.0 | 10.2% | -1.0%
CCN(C(=O)CSc1nc(C)cc(=O)[nH]1)C1CCCCC1 | -15.8 | -12.3% | · | 18.6% | · | · | 0.6%
Cc1ccc(S(=O)(=O)NCc2cn3c(C)csc3n2)cc1 | -8.2 | -0.2% | -26.8 | -0.8% | 2.8 | 5.3% | -10.0%
CCOc1ccc(-n2c(=S)sc3c(=O)n(-c4ccccc4)c(SC)nc32)cc1 | -5.9 | -7.4% | -3.1 | 5.2% | -18.6 | -3.2% | -3.2%
Cc1cc(C)n2ncc(C(=O)Nc3ccc(Cl)c(Cl)c3)c2n1 | -11.3 | -5.0% | -2.6 | 13.1%[15.4 µM] | 1.0 | -25.6% | ·
CCC1CCCCN1c1nc2c(C=O)c(C)nn2c2ccccc12 (stereo unspecified) | -6.8 | -3.1% | -10.2 | -16.0%[15.4 µM] | -1.3 | -11.4% | 0.3%
Nc1[nH]n(-c2ccccc2)c(=O)c1N=Nc1ccc2ncsc2c1 | -8.2 | -28.9% | 23.9 | ? | 3.3 | 50.1µM* | 0.3%
O=C(Nc1sc2c(c1-c1nc3ccccc3[nH]1)CCCC2)C1CCCC1 | -6.3 | ? | 1.3 | 12.9% | 8.8 | 5.6% | 10µM*
COc1ccccc1CNC(=O)CN1c2cccc3cccc(c23)S1(=O)=O | 3.8 | -9.4% | -2.5 | -9.4% | · | · | -17.1%
CN1CCN(c2ccc(NC(=O)c3ccc([N+](=O)[O-])o3)cc2Cl)CC1 | -1.5 | 3.1% | -3.9 | 5.2% | -4.2 | -0.8% | ·
OC1(c2ccc(Cl)cc2)CCN(Cc2cn[nH]c2-c2ccc(F)cc2)CC1 | -16.4 | 4.9% | -5.6 | 16.6% | -2.3 | 4.9% | ·
O=c1[nH]c2cc3c(cc2cc1CN(CCc1ccccc1)C(=S)NCCCN1CCOCC1)OCCO3 | -23.2 | 0.7% | · | ? | · | · | 3.5%
C[C@@H]1CN([C@@H](C)CO)S(=O)(=O)c2ccc(Br)cc2O[C@H]1CN(C)C(=O)c1ccc2c(c1)OCO2 | 6.5 | · | · | ? | · | · | -0.9%
CCOC(=O)COC(=O)c1ccc(Oc2cc(C)nc(SC)n2)cc1 | -2.2 | ? | 7.9 | -57.5%[inhibitor] | -1.0 | -8.5% | 0.1%
COc1ccc(N(C=O)C(=S)SC)cc1 | -2.7 | -7.2% | -3.7 | -42.4% | 2.9 | 6.6% | 1.2%
O=C(Nc1cccs1)Nc1ccccc1Cl | -5.5 | 0.5% | -19.0 | -3.3% | 26.3 | 44.7µM* | -1.8%
CCOc1ccccc1NC(=O)COc1coc(CN2CCCc3ccccc32)cc1=O | 15.4 | -14.7% | 8.9 | 6.4% | · | · | -7.7%
O=C(Nc1nc(-c2ccc(F)c(F)c2)cs1)c1cnccn1 | -4.3 | 6.4% | -8.8 | -28.0% | 0.2 | -13.0% | -6.4%
COc1ccc(/C=C/c2nc(S(=O)(=O)c3ccccc3)c(NCCCN(C)C)o2)cc1OC | -30.7 | -12.3% | 23.1 | 9.8% | 0.0 | 1.8% | 3.7%
CN1CCN(C2=C(Cl)C(=O)N(Cc3ccccc3)C2=O)CC1 | -25.6 | 8.3% | 6.5 | -8.4% | -4.1 | 3.6% | 0.5%
COc1ccccc1OCCNC(=O)c1ccc(Br)cc1 | -33.1 | 0.4% | 3.5 | ? | 0.0 | 15.2% | -1.4%
CC(=O)NC(=S)NNC(=O)COc1ccc(Br)cc1 | -14.4 | -4.5% | 25.3 | ? | ? | -51.5% | -0.4%
COc1ccc(OC)c(/C=N/NC(=O)CC(=O)NCc2ccccc2)c1 | -11.0 | 0.5% | 7.0 | -40.3% | ? | 14.6% | 4.2%
COc1cccc(-c2cc(N)nn2C(=O)Nc2ccc(Cl)cc2)c1 | -7.0 | -22.0% | 17.2 | ? | -1.6 | 19.2% | -6.7%
CCOC(=O)C1(CC2CCCCO2)CCN(Cc2cc(F)ccc2-n2cccn2)CC1 (stereo unspecified) | -8.1 | -1.2% | -0.5 | -30.8%[inhibitor] | 3.8 | 6.4% | ·
CCCn1c(SCC(=O)N2CCN(C(C)=O)CC2)nc2sc3c(c2c1=O)CCC3 | -4.3 | -30.7% | -13.6 | -15.3% | 9.2 | 7.1% | -1.9%
Cc1ccccc1NC(=O)CSc1nc2scc(C)c2c(=O)[nH]1 | -1.6 | -2.5% | 13.4 | -11.5% | · | 9.5% | ·
CN(C(=O)C1CCC(=O)N(C2CC2)C1)C1CCCCC1 (stereo unspecified) | -12.4 | 9.5% | 5.9 | ? | 3.9 | 10.1% | 0.2%
